# YopH PTP inh = inhibitors of Yersinia enterocolitica YopH tyrosine phosphatase; 140,000 compounds, 0.16% hits; AID 898; fluorescence Ex485/Em525; inhibition, %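 (about 10 µM by stock and volumes)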;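 active = inhibition of 50% or more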;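 also: controls were vehicle for no effect and minimum signal wells for full effect; inactives centre near -20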
# Arbovirus inh = antivirals against arbovirus infection | AID 1251 | 200,000 compounds, 0.37% hits | arbovirus infection cell-based antiviral screen | inhibition, % at 10 µM;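 active = inhibition from about 30%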;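 also: bluetongue infection of BSR cells; cell survival read as ATP light after 72 h; 0% = infected wells without compound and 100% = uninfected wells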
# RecA splice inh = blocks M. tuberculosis RecA intein splicing; cell-free RecA intein splicing, fluorescence; inhibition, %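 (about 9 µM by stock and volumes)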; 290,000 compounds, 0.75% hits; in the data active = inhibition above about 30%; inconclusive = no clear call, values can overlap the other calls;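 also: 0% = vehicle wells and 100% = reference inhibitor control wells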
# Target sequence (P9WHJ3 whole entry, looked up, canonical isoform): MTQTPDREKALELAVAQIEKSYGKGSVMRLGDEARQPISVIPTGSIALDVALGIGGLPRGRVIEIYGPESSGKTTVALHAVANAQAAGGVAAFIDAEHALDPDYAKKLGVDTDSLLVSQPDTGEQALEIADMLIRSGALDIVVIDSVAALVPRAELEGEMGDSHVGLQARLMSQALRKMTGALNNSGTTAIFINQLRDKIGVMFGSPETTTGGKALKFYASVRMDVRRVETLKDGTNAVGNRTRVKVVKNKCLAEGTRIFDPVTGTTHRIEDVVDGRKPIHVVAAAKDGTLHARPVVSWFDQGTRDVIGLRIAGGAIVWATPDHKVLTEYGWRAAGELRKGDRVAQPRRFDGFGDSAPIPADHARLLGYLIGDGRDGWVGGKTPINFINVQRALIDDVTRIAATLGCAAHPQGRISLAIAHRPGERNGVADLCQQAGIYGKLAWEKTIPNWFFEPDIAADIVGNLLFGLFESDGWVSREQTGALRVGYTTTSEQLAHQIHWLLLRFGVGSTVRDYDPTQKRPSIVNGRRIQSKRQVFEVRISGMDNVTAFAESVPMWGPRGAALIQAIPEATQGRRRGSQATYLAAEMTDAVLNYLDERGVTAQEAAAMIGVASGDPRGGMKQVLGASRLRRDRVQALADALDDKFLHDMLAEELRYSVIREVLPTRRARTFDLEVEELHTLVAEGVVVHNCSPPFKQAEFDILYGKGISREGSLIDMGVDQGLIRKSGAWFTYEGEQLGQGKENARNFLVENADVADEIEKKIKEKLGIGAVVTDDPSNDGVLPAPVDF
# Mtb H37Rv = M. tuberculosis H37Rv growth inhibitors, H37Rv strain (AID 1626); inhibition, % at 10 µM, or IC50 in µM where a hit was titrated; M. tuberculosis H37Rv growth inhibition; higher % means a stronger effect; 220,000 compounds, 0.95% hits;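 active = confirmed in a dose series; inconclusive = inhibition above 80% but not taken into the dose series; inactive = below 80% or under 30% at every dose of the series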;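 also: bacteria incubated seven days before Alamar blue readout; 0% = bacteria only wells and 100% = bacteria with antibiotic wells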
# Mtb bLac sens = beta-lactam sensitization of Mtb H37Rv | M. tuberculosis H37Rv growth with meropenem, percent inhibition; hits of this screen are not shown here | inhibition, % at 25 µM | 330,000 compounds, 0.27% hits | AID 434955;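 active = about 74% or more and at least 40 points above the plate without the antibiotic, then above 30% in a dose series; inconclusive = first-round hits that could not be retested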;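 also: growth measured after seven days incubation then overnight dye step; 0% = bacteria only wells and 100% = bacteria with antibiotic; twin plates without the antibiotic show which effects depend on it; some results filed as inactive read as strong as hits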
# Arbovirus inh repeat = also measured in Arbovirus inh; calls as there; inhibition, %; measured here: 10K subset replicate screen; many hits read low in the repeat;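 first of two repeat runs on a subset; 0% = infected and 100% = uninfected wells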
# The depositor's hits bear a star; ? = inconclusive; · = no result given.
SMILES,YopH PTP inh,Arbovirus inh,RecA splice inh,Mtb H37Rv,Mtb bLac sens,others
COc1ccc(S(=O)(=O)N2CCC(C(=O)NCc3ccccn3)CC2)cc1OC,-21,7,-0.6,-6%,3,
Cn1c(=O)[nH]c(=O)c2c1nc(Br)n2CC(O)COCc1ccccc1 (centres undefined),-37,4,-3.8,-4%,-5,
COc1ccc(NC(=O)[C@H](C)NC(=O)C2CCN(S(=O)(=O)c3ccc(OC)cc3)CC2)cc1,·,·,-1.8,·,5,
CC1CCCN(S(=O)(=O)c2cc3c4c(c2)C(C)C(=O)N4CCC3)C1 (centres undefined),·,·,-4.1,·,-1,
CCOC(=O)c1ccoc1CSCC(=O)N1CCN(S(=O)(=O)c2ccc(C)cc2)CC1,-32,9,0.6,-1%,-4,
Cc1cccc(NC(=O)CCCc2ccccc2)c1C,·,·,-0.1,·,5,
COc1ccc2nc(NC(=O)CS(=O)(=O)c3ccc(C)cc3)sc2c1,·,·,1.9,·,-6,
CCC(=O)c1cc(F)c(N2CCN(C(=O)c3ccco3)CC2)cc1C,-3,2,2.6,8%,-5,Arbovirus inh repeat=4
CCc1nc2ccccc2nc1N1CCN(S(=O)(=O)c2ccccc2)CC1,·,·,11,8%,-6,
Cc1ccccc1Cn1ccc(NC(=O)c2cc3ncc(Br)cn3n2)n1,·,-6,-3.5,-9%,3,
CCOC(=O)c1c(/N=C/C2C(=O)NC(=O)NC2=O)sc2c1CCC2,·,-4,-6.3,4%,-2,
O=C(Cn1cnc2cc([N+](=O)[O-])ccc2c1=O)Nc1ccc(Br)cc1,·,·,-3.9,·,-5,
Nc1ccc(-n2cc(-c3ccccc3)[nH]c2=S)cc1,·,·,-13,·,-3,
Cc1ccc(C(=O)n2nc(-c3cccnc3)nc2N)cc1,-9,-5,25,0%,-2,
CC1CN(C(=O)C2(C)CC2(Cl)Cl)CC(C)O1 (centres undefined),-21,0,-4.1,5%,2,
CCn1nc(Cc2cccc3ccccc23)c(C#N)c1N,·,·,-5.5,-4%,0,
COCCN1C(=O)c2oc3ccccc3c(=O)c2C1c1ccc(C(=O)OC)cc1 (centres undefined),-24,-2,0.4,0%,3,Arbovirus inh repeat=1
Cc1nc(N2CCN(c3ccccn3)CC2)c2c(C)c(C(=O)Nc3c(F)cc(F)cc3Br)sc2n1,·,·,0.3,·,97,
COc1ccc(OC)c(C2SCCN2S(=O)(=O)c2cccc(C(F)(F)F)c2)c1 (centres undefined),-21,6,1.7,6%,12,
CC(=O)Oc1ccc(-c2nc(-c3cccnc3)no2)cc1,-31,4,6.0,7%,17,
O=C(OCC(=O)N1CCc2ccccc21)c1ccccn1,·,8,-1.7,-8%,1,
COC(=O)c1sccc1NC(=O)COc1ccc(F)cc1Cl,·,10,-0.8,·,11,
O=C(CSc1nc2ccccc2o1)Nc1nc2ccc(Br)cc2s1,-16,-13,-0.8,9%,60,
NC(=O)CSc1cn(Cc2ccc(F)cc2)c2ccccc12,·,13,0.1,1%,3,
COc1ccc(CN2CCNC(=O)C2CC(=O)N(Cc2nccn2C)C(C)C)c(OC)c1 (centres undefined),·,·,-1.3,-11%,-12,
Cc1ccc(S(=O)(=O)N(C)c2ccc(C(=O)NCc3ccccn3)cc2)cc1,·,2,-2.0,5%,3,
Cc1ccc(Cn2c(NCCCn3ccnc3)nc3c2c(=O)n(C)c(=O)n3C)cc1,-54,0,1.9,-1%,-4,
COc1ccc(Cl)cc1N(CC(=O)NCCSCc1ccccc1)S(C)(=O)=O,·,·,-1.7,·,7,
CCOc1ccc(NC(=O)CN(C)CC(=O)NC(C)c2ccccc2)cc1OCC (centres undefined),·,0,-2.1,1%,-6,
Cc1nn(C(C)C(=O)N/N=C/c2ccc(N(C)C)cc2)c(C)c1[N+](=O)[O-] (centres undefined),·,·,·,4%,-1,
O=C(Nc1ccc2c(c1)oc1ccccc12)c1ccc(Br)o1,-47,10,2.0,?,88,
CNC(=O)c1ccc(-c2ccc(F)cc2)s1,-16,-3,-3.3,-5%,-5,
Cc1ccc(/C(C#N)=C\c2ccc(N3CCOCC3)o2)cc1,7,-10,-20,0%,78,
C/C(=N\NC(=O)CNC(=O)c1cccnc1)c1cccc(O)c1,·,·,-2.0,·,-7,
N#Cc1c(NC(=O)CSc2nnc(-c3ccccc3O)n2-c2ccccc2)sc2c1CCCC2,2,16,6.3,9%,-7,
CCN(C(=O)CCCCC(=O)N(CC)c1ccccc1)c1ccccc1,·,·,3.6,·,0,
COc1ccc(Cc2nnc(SC)[nH]c2=O)cc1,-25,9,·,-9%,72,
CCOC(=O)c1c(C)nc2sc3c(=O)n(-c4ccc(C(C)=O)cc4)nnc3c2c1-c1ccc(Cl)cc1,-27,-3,5.9,13%,36,
O=C(CCn1c(=O)[nH]c2ccsc2c1=O)N1CC(=O)N(CCc2ccccc2)C(=O)C1,-36,0,-0.8,-3%,7,
CCn1cc(C(=O)NCc2cccc(C(F)(F)F)c2)c(=O)c2ccc(C)nc21,·,·,0.3,·,-1,
Cc1ccccc1CCN1CCCC(CN(C)C(=O)C(=O)c2ccco2)C1 (centres undefined),·,·,2.0,·,?,
CCOc1ccc(C2Sc3ccccc3NC3=C2C(=O)OC3)cc1 (centres undefined),-8,2,-18,10%,-3,
O=C1NS(=O)c2cc([N+](=O)[O-])cc([N+](=O)[O-])c21 (centres undefined),·,3,-7.3,-1%,4,
O=P(O)(c1ccc(Cl)cc1)c1ccc(Cl)cc1,-21,0,-0.9,-3%,-7,
COc1cc(C)c(Br)cc1S(=O)(=O)NCc1ccncc1,·,11,1.7,-6%,4,
CCOc1ccccc1C(=O)Oc1ccc2ccc(=O)oc2c1,·,·,-82,·,37,
COc1ccc(NC(=O)c2c(Cl)n(C)c3ccccc23)cc1,-38,-23,7.6,7%,-6,
Cc1c(-c2nn(C)c(=O)c3ccccc23)oc2ccc(F)cc2c1=O,-13,0,88*,-2%,4,

# In the list so far, these have a CF3 group:
SMILES,YopH PTP inh,Arbovirus inh,RecA splice inh,Mtb H37Rv,Mtb bLac sens,others
COc1ccc(OC)c(C2SCCN2S(=O)(=O)c2cccc(C(F)(F)F)c2)c1 (centres undefined),-21,6,1.7,6%,12,
CCn1cc(C(=O)NCc2cccc(C(F)(F)F)c2)c(=O)c2ccc(C)nc21,·,·,0.3,·,-1,

# The listing picks up, repeating the two entries before the break.
SMILES,YopH PTP inh,Arbovirus inh,RecA splice inh,Mtb H37Rv,Mtb bLac sens,others
COc1ccc(NC(=O)c2c(Cl)n(C)c3ccccc23)cc1,-38,-23,7.6,7%,-6,
Cc1c(-c2nn(C)c(=O)c3ccccc23)oc2ccc(F)cc2c1=O,-13,0,88*,-2%,4,
Oc1c(I)cc(Cl)c2cccnc12,-31,-25,16,·,98,
CNS(=O)(=O)c1cc(Nc2ncnc3sccc23)ccc1C,·,·,1.5,·,-5,
CN(C(=O)c1ccoc1)c1ccc2ccccc2c1,·,·,1.1,·,7,
CN1CCc2c(sc3c2c(=O)n(-c2ccccc2)c2nnc(SCc4ccccc4)n32)C1,-21,4,2.2,-5%,10,
COc1ccc(C(=O)NN2CCOCC2)cc1,·,·,-1.8,·,8,
CC(C)(C)OC(=O)CNC(=O)c1[nH]cnc1C(=O)N[C@@H](Cc1ccccc1)C(=O)OC(C)(C)C,·,·,-1.6,-7%,-8,
Cc1[nH]c2ccccc2c1C(=O)CSC(=S)N1CCN(C)CC1,·,·,0.1,4%,1,
CCOc1ccc2ccccc2c1C1NC(=S)N(C)C(C)=C1C(=O)OC (centres undefined),·,6,5.0,-4%,-5,
O=S(=O)(O/N=C1\CCCc2ccccc21)c1ccc(Cl)cc1,-14,0,1.1,3%,-11,
Cc1ccc(-n2nc3c(c2NC(=O)C(C)(C)C)CS(=O)(=O)C3)cc1,·,·,0.9,·,?,
Cc1cc(C)cc(N2C(=O)C3CC=CCC3C2=O)c1 (centres undefined),-78,2,-0.8,2%,-5,
COc1ccc(CNC(=O)CN(Cc2ccco2)C(=O)CNS(=O)(=O)c2ccccc2)cc1,·,·,-3.3,·,4,
Cc1ccc(N2CCN(/N=C/C(Cl)=C/c3ccccc3)CC2)cc1,·,-1,0.4,3%,2,
CC1(c2cnc(Nc3ccccc3)s2)CCC(=O)O1 (centres undefined),-5,-12,-2.1,1%,-16,
CC(Oc1ccc(F)cc1)C(=O)Nc1cc(S(=O)(=O)N2CCOCC2)ccc1N1CCCCC1 (centres undefined),·,·,7.5,·,-5,
Cc1ccc(SCCNS(=O)(=O)c2ccc(F)cc2)cc1,-32,-8,8.7,1%,1,
N/C(=N\OS(=O)(=O)c1ccc(Cl)cc1)c1cccnc1,-9,5,·,-1%,-6,
Cc1ccc(-n2cc(CNC(C)Cn3cncn3)c(-c3ccc(F)cc3)n2)cc1 (centres undefined),·,1,0.4,71%,65,
CCCS(=O)(=O)n1nc(-c2ccc(Br)cc2)cc1N,-27,-6,-4.5,11%,2,
Clc1cccc(Cl)c1-c1noc(CN2CCOCC2)n1,·,·,0.1,-4%,58,
Cc1ccc(C)c(Oc2nnnn2-c2ccccc2)c1,-44,-12,2.5,2%,4,
COc1cc(NC(=O)c2cc(C)no2)c(OC)cc1Cl,·,·,-3.0,·,0,
O=c1oc2ccccc2c(Nc2ccc(F)cc2)c1[N+](=O)[O-],·,0,7.1,6%,1,
CCCOC(=O)CC1C(=O)NCCN1Cc1ccccc1C (centres undefined),-12,4,0.4,1%,-1,Arbovirus inh repeat=8
CC1(c2nnc(Cc3ccccc3)o2)CC(c2ccc(F)cc2)=NO1 (centres undefined),·,·,2.9,-3%,-5,
CC1CCN(CCCNC(=O)c2ccc3c(=O)n(Cc4ccc(Cl)cc4)c(=S)[nH]c3c2)CC1,·,-37,4.3,-1%,8,
[O-][n+]1ccccc1SC/C=C/c1ccccc1,·,17,1.3,22%,2,
CN(C)c1nc(Oc2ccc(=O)n(-c3ccccc3)n2)nc(N2CCOCC2)n1,-14,-2,0.0,-2%,-25,
Clc1ccc(-c2cnn3c(-c4ccncc4)ccnc23)cc1,·,7,·,10%,49,
N=C(c1cccc([N+](=O)[O-])c1)N1CCCCCC1,·,3,-1.4,9%,1,
O=C(NC(=S)Nc1cccc2[nH]ncc12)c1ccccc1,·,-2,-21,2%,-7,
CC(Sc1nnc(CNc2cccc3ccccc23)n1-c1ccccc1)C(=O)N/N=C/c1ccco1 (centres undefined),-17,-1,2.9,-4%,-7,
NC(=O)CSc1oc(-c2ccco2)nc1S(=O)(=O)c1ccc(F)cc1,·,·,1.3,·,0,
Cc1nc2n(n1)C(c1ccccc1)C1=C(CC(c3ccco3)CC1=O)N2 (centres undefined),-18,7,-2.0,-1%,3,
O=C(C1CC(=O)N(c2ccc(F)cc2)C1)N1CCC(c2nc3ccccc3[nH]2)CC1 (centres undefined),·,·,-0.6,·,-11,
O=c1ccc(-c2ccccc2)no1,·,·,9.4,-11%,-12,
COC(=O)Nc1ccc(S(=O)(=O)N2CCCC(C(=O)Nc3cccnc3)C2)cc1 (centres undefined),-15,7,3.2,-10%,-16,
COc1ccc(/C=C/CN2CCCC(CCC(=O)NCc3ccc(F)c(F)c3)C2)cc1 (centres undefined),·,-25,1.8,-2%,5,

# Among those listed so far, 13 have an aryl methoxy group.
SMILES,YopH PTP inh,Arbovirus inh,RecA splice inh,Mtb H37Rv,Mtb bLac sens,others
COc1ccc(S(=O)(=O)N2CCC(C(=O)NCc3ccccn3)CC2)cc1OC,-21,7,-0.6,-6%,3,
COc1ccc(NC(=O)[C@H](C)NC(=O)C2CCN(S(=O)(=O)c3ccc(OC)cc3)CC2)cc1,·,·,-1.8,·,5,
COc1ccc2nc(NC(=O)CS(=O)(=O)c3ccc(C)cc3)sc2c1,·,·,1.9,·,-6,
COc1ccc(OC)c(C2SCCN2S(=O)(=O)c2cccc(C(F)(F)F)c2)c1 (centres undefined),-21,6,1.7,6%,12,
COc1ccc(CN2CCNC(=O)C2CC(=O)N(Cc2nccn2C)C(C)C)c(OC)c1 (centres undefined),·,·,-1.3,-11%,-12,
COc1ccc(Cl)cc1N(CC(=O)NCCSCc1ccccc1)S(C)(=O)=O,·,·,-1.7,·,7,
COc1ccc(Cc2nnc(SC)[nH]c2=O)cc1,-25,9,·,-9%,72,
COc1cc(C)c(Br)cc1S(=O)(=O)NCc1ccncc1,·,11,1.7,-6%,4,
COc1ccc(NC(=O)c2c(Cl)n(C)c3ccccc23)cc1,-38,-23,7.6,7%,-6,
COc1ccc(C(=O)NN2CCOCC2)cc1,·,·,-1.8,·,8,
COc1ccc(CNC(=O)CN(Cc2ccco2)C(=O)CNS(=O)(=O)c2ccccc2)cc1,·,·,-3.3,·,4,
COc1cc(NC(=O)c2cc(C)no2)c(OC)cc1Cl,·,·,-3.0,·,0,
COc1ccc(/C=C/CN2CCCC(CCC(=O)NCc3ccc(F)c(F)c3)C2)cc1 (centres undefined),·,-25,1.8,-2%,5,

# Screens as filed in PubChem BioAssay.

# These rows are one share of the data; rates above refer to the full screens.
